High-throughput results: PubChem BioAssay, Johns Hopkins Ion Channel Center
KCNQ2 pot – potentiators of rat KCNQ2 potassium channel; O88943; CHO-K1 KCNQ2, FluxOR thallium flux fluorescence; stronger effect = higher value; B-score at 10 µM; 0.54% of 310,000 active;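 active means fluorescence ratio B-score at least 3 SD of library B-scores, with initial fluorescence B-score within 3 SD, cut at about 5.3 in these data; same plate scores as AID 2156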;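 further: B-score of peak minus minimum over baseline fluorescence ratio after K+ and Tl+ stimulus; positive B-score means potentiation of KCNQ2 with more thallium influx and brighter signal; only the inactives scoring about 0 or higher are listed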
Target sequence (O88943 whole entry, looked up): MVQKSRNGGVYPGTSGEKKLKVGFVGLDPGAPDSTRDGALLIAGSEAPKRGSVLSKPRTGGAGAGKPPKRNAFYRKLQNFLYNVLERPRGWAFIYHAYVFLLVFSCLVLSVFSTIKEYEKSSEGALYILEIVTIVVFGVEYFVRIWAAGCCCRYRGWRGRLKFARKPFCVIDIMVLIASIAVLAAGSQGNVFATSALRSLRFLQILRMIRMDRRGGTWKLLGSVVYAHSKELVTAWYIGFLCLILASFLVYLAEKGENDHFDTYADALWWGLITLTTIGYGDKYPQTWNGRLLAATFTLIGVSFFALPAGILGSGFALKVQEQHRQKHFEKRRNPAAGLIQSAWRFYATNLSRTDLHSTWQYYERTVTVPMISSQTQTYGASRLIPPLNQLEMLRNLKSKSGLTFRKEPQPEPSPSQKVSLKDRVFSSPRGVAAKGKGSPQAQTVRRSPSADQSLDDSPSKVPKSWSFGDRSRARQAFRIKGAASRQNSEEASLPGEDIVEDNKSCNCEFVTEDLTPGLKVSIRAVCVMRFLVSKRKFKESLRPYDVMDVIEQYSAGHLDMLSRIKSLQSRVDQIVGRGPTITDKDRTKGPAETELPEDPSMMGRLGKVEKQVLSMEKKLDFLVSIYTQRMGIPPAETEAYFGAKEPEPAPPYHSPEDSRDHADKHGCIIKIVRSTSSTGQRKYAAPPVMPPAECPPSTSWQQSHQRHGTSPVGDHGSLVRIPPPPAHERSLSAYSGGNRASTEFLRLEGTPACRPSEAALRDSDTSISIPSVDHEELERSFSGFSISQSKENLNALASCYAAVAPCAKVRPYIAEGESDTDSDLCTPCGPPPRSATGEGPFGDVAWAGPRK
KCNQ2 pot baseline – recorded beside KCNQ2 pot, whose call it bears; B-score; compound at 10 µM; measured here: initial fluorescence intensity artifact check;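 brightness before thallium and not channel activity; 0 = typical well and far values either way flag optical interference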
* marks the source's active call; other numbers are inactive results.

SMILES	KCNQ2 pot	KCNQ2 pot baseline
COc1cc(CNC(C)c2ccccc2)c(Br)cc1OCC(N)=O (stereo not given)	0.36	-0.78
O=C(Nc1ccccc1)Nc1ccno1	0.01	-0.88
Cc1occc1C(=O)N/N=C/C(Br)=C\c1ccccc1	0.51	2.3
CCn1c(=O)cc(OCC(=O)Nc2ccccc2N2CCN(C)CC2)c2ccccc21	0.87	1.7
CC(=O)c1c(O)cc(C)n(-c2ccc(F)cc2)c1=O	0.06	1.7
COC(=O)C1(O)CC(C(C)C)=NN1C(=O)c1ccccc1 (stereo not given)	1.8	-0.54
Cc1ccc(C(=O)Nc2ccccc2SCC2CSc3nc4ccccc4c(=O)n32)cc1 (stereo not given)	0.07	1.2
Cc1ccccc1C(=O)Oc1cc(N)n(S(C)(=O)=O)n1	0.49	-0.38
COC(=O)CCCCCCCCC(=O)Nc1nc2ccccc2s1	0.03	0
O=C(c1cccc(S(=O)(=O)N2CCOCC2)c1)N1CCCC(C(F)(F)F)C1 (stereo not given)	0.74	-0.04
COC(=O)c1nnn(-c2ccsc2C(=O)OC)c1C(=O)OC	0.78	0.61
COc1ccc(-c2nnc(NC(=O)c3ccc([N+](=O)[O-])o3)o2)c(OC)c1	0.56	-0.24
Cc1nc(SCC(=O)NCc2ccco2)c2c(=O)n(C)c(=O)n(CC(C)C)c2n1	0.72	0
CC1(C)CCC(=O)N2CC[C@H]3C[C@H](OC(=O)Nc4ccc5c(c4)OCO5)C[C@@H]1[C@H]32	0.55	-0.99
CCCCCCSc1cc(-c2nc3cc(C)ccn3c2NCCCC)ccc1OC	0.06	1.1
CCOc1ccc(Br)cc1CNCCN1CCOCC1	1.5	0.08
Cc1ccccc1NC(=O)C(C)Sc1nnc(-c2ccncc2)n1CC1CCCO1 (stereo not given)	0.54	0.02
Cc1nc(NCCO)c2nnn(Cc3ccccc3F)c2n1	1	-1.3
COc1cccc(/C=N/Nc2snc(SC)c2C#N)c1O	4	1.9
CCCCOc1ccccc1C(=O)NCC(=O)O	0.52	0.88

Looked up one by one from the list above:
SMILES	KCNQ2 pot	KCNQ2 pot baseline
CCCCOc1ccccc1C(=O)NCC(=O)O	0.52	0.88
COc1cc(CNC(C)c2ccccc2)c(Br)cc1OCC(N)=O (stereo not given)	0.36	-0.78
Cc1nc(SCC(=O)NCc2ccco2)c2c(=O)n(C)c(=O)n(CC(C)C)c2n1	0.72	0
CC(=O)c1c(O)cc(C)n(-c2ccc(F)cc2)c1=O	0.06	1.7
Cc1ccccc1NC(=O)C(C)Sc1nnc(-c2ccncc2)n1CC1CCCO1 (stereo not given)	0.54	0.02
CCCCCCSc1cc(-c2nc3cc(C)ccn3c2NCCCC)ccc1OC	0.06	1.1
O=C(Nc1ccccc1)Nc1ccno1	0.01	-0.88

Returning to the listing, repeating the four entries before the break.
SMILES	KCNQ2 pot	KCNQ2 pot baseline
Cc1ccccc1NC(=O)C(C)Sc1nnc(-c2ccncc2)n1CC1CCCO1 (stereo not given)	0.54	0.02
Cc1nc(NCCO)c2nnn(Cc3ccccc3F)c2n1	1	-1.3
COc1cccc(/C=N/Nc2snc(SC)c2C#N)c1O	4	1.9
CCCCOc1ccccc1C(=O)NCC(=O)O	0.52	0.88
CCCc1cc(N2CCCC(C(=O)Nc3ccc(OC)cc3OC)C2)n2ncnc2n1 (stereo not given)	0.41	1.4
COc1cccc(-c2nnn(CC(=O)O)n2)c1	1.4	-0.32
Cc1ccc([N+](=O)[O-])cc1NC(=O)C(C)N1CCCCC1 (stereo not given)	0.21	-2.2
Cc1onc(C(=O)NC(C)c2ccccc2)c1[N+](=O)[O-] (stereo not given)	0.2	0.35
COC(=O)c1cc2c(cc1[N+](=O)[O-])OCO2	0.99	-1.7
Cc1cc(C)c2nc(SCC(=O)Nc3cc(C)on3)c(C)cc2c1	0.95	-1.1
O=C(CCCOc1ccc(Cl)cc1Cl)NCCCn1ccnc1	0.12	0.01
CCC(C)NC(=O)CCC(=O)Nc1ccc2nc(N3CCOCC3)cc(C)c2c1 (stereo not given)	0.07	1.2
CC(=O)Nc1c2c(nn1-c1cccc(Cl)c1)CS(=O)(=O)C2	1.3	-0.93
COc1cc(C(=O)Nc2ccccc2N2CCOCC2)ccc1OCc1c(C)noc1C	1.2	-3.3
C(=C\n1nnc2ccccc21)/c1ccccn1	0.83	0
COc1ccc(OCc2cc(C(=O)NCC3CCCCO3)no2)c(Cl)c1 (stereo not given)	1	-1.2
COc1ccc(NC(=S)N(CCN2CCOCC2)Cc2cc3cc4c(cc3[nH]c2=O)OCO4)cc1	1.4	-0.04
COc1cc(-c2nnc(COC(=O)CSCC(=O)Nc3cc(C)on3)o2)cc(OC)c1OC	1.3	0.72
Fc1cc2[nH]c(=S)[nH]c2c(Br)c1N1CCSCC1	0.45	0.51
CCOc1ccc(Br)cc1S(=O)(=O)Nc1ccc(N2CCOCC2)cc1	0.33	0.06
Cc1c(OC(C)C(=O)NCc2ccccn2)ccc2c3c(c(=O)oc12)CCC3 (stereo not given)	1.8	0.14
OC(c1ccccc1)C(O)c1ccccc1 (stereo not given)	2	-0.6
C=C(C)Cn1c(CCNC(=O)C(C)(C)C)nc2ccccc21	1.7	-0.87
COc1ccc2c(c1)C(=NO)c1cc(OC)ccc1-2	1	-0.06

Entries of single compounds from above. Screens in order: KCNQ2 pot, KCNQ2 pot baseline
Shown for COc1cc(C(=O)Nc2ccccc2N2CCOCC2)ccc1OCc1c(C)noc1C : 1.2, -3.3
Shown for COc1ccc2c(c1)C(=NO)c1cc(OC)ccc1-2 : 1, -0.06

The results go on.
SMILES	KCNQ2 pot	KCNQ2 pot baseline
O=C(Nc1ccn(-c2ccccc2)n1)c1ccccc1Br	0.7	1.2
O=C(CCC(=O)NC1CCCCCC1)Nc1nnc(C(F)(F)F)s1	2.5	0.91
CC(=O)NC(CC(=O)NCCN1C(=O)S/C(=C\c2ccccc2)C1=O)c1ccccc1 (stereo not given)	0.05	-1.6
Cc1nn(C)cc1-c1n[nH]c(=S)n1-c1ccc(Cl)cc1	0.93	-0.79
CC(=O)c1sc(NC(=O)COc2ccc([N+](=O)[O-])cc2)nc1C	0.13	0.78
CC1Cc2ccccc2N1C(=S)Nc1ccc(S(N)(=O)=O)cc1 (stereo not given)	0.76	-3.5
CC(C)c1nnc(NC(=O)CCC(=O)NC2CC2)s1	0.02	0.65
Cc1ccc2[nH]c(-c3ccccc3)cc(=O)c2c1	0.02	0.34
FC(F)Sc1ccc(-n2c(-c3ccc(Cl)cc3)c[n+]3c2CCC3)cc1	0.3	-0.44
COc1ccc(NC(=O)CSc2nc3c(c(=O)n2-c2ccc(F)cc2)SCC3)c(OC)c1	0.59	-0.7
NCCCC(=O)N1c2ccccc2Sc2ccc(Cl)cc21	1.1	-1.1
CCc1ccc(-n2c(Cn3nc(C(F)(F)F)cc3C)n[nH]c2=S)cc1	0.16	-0.68
COc1ccccc1CCNC(=O)CSc1nc(=O)[nH]c2c1CCC2	0.36	-0.85
COc1cc2c(cc1OC)CN(C(=O)C1CCN(S(=O)(=O)c3ccccc3F)CC1)CC2	1.9	0.93
O=C(O)CCNc1cc(N2CCN(C(=O)c3ccco3)CC2)c2noc3c2c1C(=O)c1ccccc1-3	1	-2.4
CCC1=NC(c2ccccc2OC)N(O)C1(C)C (stereo not given)	0.57	-0.43
O=C(N/N=C/c1ccc(OC(=O)c2ccccc2)cc1)c1cccnc1	0.03	-1.2
O=C(COC(=O)c1cc(S(=O)(=O)N2CCCC2)ccc1O)Nc1ccc(S(=O)(=O)N2CCOCC2)cc1	0.05	2.8
COc1ccccc1CNC(=O)CNC(=O)c1cn(-c2ccccc2OC)c(=O)c2ccccc12	0.59	-0.03
COc1ccc(-c2nn(-c3ccccc3)cc2/C=N/NC(=S)NC(C)C)cc1OC	0.21	-2.1
O=C1/C(=N/n2cnnc2)c2ccccc2N1Cc1ccccc1	0.02	-2.1
CCN1CCc2c(sc(NC(=O)Cc3ccccc3)c2C(N)=O)C1	0.93	-1.2
COc1cc(CNc2ccc(NC(C)=O)cc2)ccc1OCc1ccccc1C	5.5*	0.91*
O=C(Nc1cccn(Cc2cccc(F)c2)c1=O)NC1CCCCC1	0.05	0.65
C/C(=N\Nc1ccc([N+](=O)[O-])cc1)c1ccco1	1.2	-0.84
CNC(=S)NCCc1c[nH]c2ccc(OC)cc12	0.74	-0.15
CC(=O)NNc1cc(=O)c2c(=O)n(C)c(=O)n(C)c2[nH]1	0.83	-1.1
O=C(CN1C(=O)NC2(CCCCCCC2)C1=O)N1CCc2ccccc2C1	0.03	-0.89
O=C(C(=O)N1CCCc2ccccc21)N1CCCc2ccccc21	0.01	1.1
Cc1cccc(/C=C2/Sc3ccc(C(=O)N4CCOCC4)cc3NC2=O)c1	0.13	-1.8
NS(=O)(=O)c1cccc(NC(=O)COC(=O)/C(=C/c2cccs2)c2cccs2)c1	2.1	-0.37
O=C(CN1CCN(Cc2ccc(Cl)cc2)CC1)N/N=C/c1ccccc1F	0.12	-0.76
COc1cc(C(=O)NCCC(=O)NCCc2ccc(Cl)cc2)cc(OC)c1OC	0.15	0.04
CCN1CCN(Cc2c(C)[nH]c3ccc(C(=O)OC)cc3c2=O)CC1	1.3	-0.72
Cc1ccc(F)cc1NC(=O)N1CCCN(C(=O)OC(C)(C)C)CC1	0.83	0.34
COc1ccc(C2/C(=C(/O)c3ccc(OC(C)C)cc3)C(=O)C(=O)N2CCCN2CCOCC2)cc1 (stereo not given)	0.59	-0.56
CN(C)S(=O)(=O)Oc1ccc(Cl)cc1C(=O)Nc1ccc(F)cc1F	0.15	0
CCOCCCNC(=O)C(c1ccccc1)N(Cc1ccc2c(c1)OCO2)C(=O)CNC(C)=O (stereo not given)	0.22	1.1
C[C@@H]1C=C(C(=O)NCc2nc3ccccc3[nH]2)O[C@H](OCc2ccc(CO)cc2)C1	0.32	0
Cc1ccc(O)c(CO)n1	0.46	-0.6
CC1(C)c2[nH]c3ccccc3c2C[C@H]2C(=O)N(Cc3ccc(F)cc3)C(=O)N21	0.14	-0.17
CNC(=S)NNC(=O)c1noc(C)c1C(=O)N1CCN(C(c2ccccc2)c2ccccc2)CC1	0.91	-0.98
COc1cc(/C=C/C(=O)OC(C)C(=O)Nc2c(C)n(C)n(-c3ccccc3)c2=O)ccc1OCC#N (stereo not given)	3.5	1.3
CCOc1ccc(C(=O)Nc2ccccc2C#N)cc1[N+](=O)[O-]	2.8	-0.73
O=C(Nc1ccccc1C(=O)N1CCOCC1)c1ccc(Br)cc1	0.16	-0.92
COC(=O)C1=C(C)n2nnnc2NC1c1cc2ccccc2o1 (stereo not given)	1.4	0.02
Fc1cccc2ncnc(OCc3ccccc3)c12	2.3	1.1
CC(=O)Nc1ccc(S(=O)(=O)Nc2ccc(C)c([N+](=O)[O-])c2)cc1	0.48	-1.4
O=C(c1ccco1)N1CCN(C(=O)c2cc3c(=O)oc4ccccc4c3s2)CC1	0.4	-1.7
O=C(OCN1C(=O)c2ccccc2C1=O)/C(=C\c1ccco1)NC(=O)c1ccccc1	0.39	-0.01
O=C(Cc1ccc2c(c1)CCCC2)Nc1ccccc1Br	0.02	0.02
CCCc1nc(SCC(=O)c2ccc(OC)cc2)c2ccccc2n1	1.3	-0.83
CC12CCC(C(=O)Nc3ccc(SC(F)F)cc3)(CC1=O)C2(C)C (stereo not given)	2	-0.66
Cc1cc2c(c(SCC(=O)NCc3ccccc3Cl)n1)C(=O)OC2	0.64	0.21
CN(Cc1ccccc1)S(=O)(=O)c1ccc(OCC(=O)NCc2ccncc2)cc1	0.1	0.45
O=C(CCCNS(=O)(=O)c1cccc2nsnc12)NCCc1ccccc1	0.32	0.14
COC(=O)c1oc2ccccc2c1N	0.17	0.34
NCCNCCNCCN	0.03	-0.02
Cc1cc[n+](CCc2ccccc2)cc1C	1.1	0.16
Cc1cc(C)nc(N/N=C/c2cc3c(cc2[N+](=O)[O-])OCO3)n1	1.3	0

(next part)
SMILES	KCNQ2 pot	KCNQ2 pot baseline
CCOc1ccccc1OCCCC(=O)N(CC)CC(=O)Nc1ccc(NC(C)=O)cc1	0.64	-0.05
O=C(Cc1ccccc1)Nc1ccc(C(=O)Nc2ccccc2C(=O)O)cc1	0.07	1.5
Cn1cccc1/C=N/n1c(-c2ccccc2)n[nH]c1=S	0.91	-0.25
COc1ccccc1N1CCN(S(=O)(=O)c2cn(C)c(=O)n(C)c2=O)CC1	1.4	-0.07
CCN(CC)S(=O)(=O)c1ccc2nc(SC)sc2c1	0.03	-1.2
COC(=O)CSc1nc2cc(C)ccc2cc1C#N	1.9	-0.24
CCN1C(=O)N[C@@H](c2cccs2)C(C(=O)OC)=C1C	0.72	1.9
N/C(=N\OC(=O)CCCN1C(=O)c2ccccc2C1=O)c1ccc(Br)cc1	0.06	-0.4
COc1cccc(-c2nnn(CC(=O)N3CCC(C)CC3)n2)c1	0.52	0.16
CC1CC(=O)N(C)c2cc([N+](=O)[O-])ccc2N1 (stereo not given)	1.7	-0.47
Cc1ccnc2c1ccc1ccccc12	0.03	0.4
CSc1ccc(CNc2ccc(Cl)cc2)cc1	0.04	0.99
CC(=O)Nc1ccc(NC(=O)Cn2c(=O)n(-c3ccc(F)cc3)c(=O)c3oc4ccccc4c32)cc1	1.8	-1.2
CCOC(=O)c1sc2nc(N3CCOCC3)c3c(c2c1N)CCCC3	0.05	-1.5
Cc1ccc(C(=O)OCC(=O)NNC(=O)c2ccc([N+](=O)[O-])cc2)o1	1.9	-0.02
CN1CCN(/C=N/C2=C(C#N)C(c3ccccc3)C3=C(CC(C)(C)CC3=O)O2)CC1 (stereo not given)	0.49	0.47
COc1ccc(C)cc1NC(=O)C1CCCN(S(=O)(=O)c2cccs2)C1 (stereo not given)	0.02	-0.12
Cc1ccccc1NC(=O)C(C)OC(=O)CCC(=O)N(CC(C)C)c1c(N)n(CC(C)C)c(=O)[nH]c1=O (stereo not given)	0.16	-0.01

The list is partial, so the mix of outcomes need not match the whole.
